CtBP-E1A blk: qHTS Assay for Inhibitors of the CtBP/E1A Interaction | CtBP / adenovirus E1A interaction (AlphaScreen) | AlphaScreen GST-E1A/His-CtBP binding, 1536-well; hits give low values; control for the full effect not named in the record | activity change, % (concentration not given with the values) | 340,000 tested, 0.49% active | AID 651724, 2012; in the data active means activity change below about -65%; inconclusive means about -30% to -65%; inactive means above about -30%; note: % is set by controls: 0 for no effect and ±100 for the full control effect
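GST-E1A and His-tagged CtBP (125 nM each as 5X stock) were preincubated with pin-transferred compound for 2 h at 37 °C in the dark, then glutathione donor and nickel acceptor beads were added for 1 h before AlphaScreen reading.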
TRPV1 potentiator: HTS Assay for Compounds that Act as Potentiators of the Vanilloid Receptor 1; TRPV1-expressing cells, Fluo-8 calcium influx, capsaicin EC20 potentiation; host cell line not named in the record; control for the full effect not named in the record; potentiation, % at 8.33 µM; 320,000 tested, 0.02% active; AID 540277, 2011; active means potentiation above 80%; inconclusive means 30% to 80%; inactive means below 30%; note: 0% is about no effect
Target sequence (Q8NER1 whole entry, looked up): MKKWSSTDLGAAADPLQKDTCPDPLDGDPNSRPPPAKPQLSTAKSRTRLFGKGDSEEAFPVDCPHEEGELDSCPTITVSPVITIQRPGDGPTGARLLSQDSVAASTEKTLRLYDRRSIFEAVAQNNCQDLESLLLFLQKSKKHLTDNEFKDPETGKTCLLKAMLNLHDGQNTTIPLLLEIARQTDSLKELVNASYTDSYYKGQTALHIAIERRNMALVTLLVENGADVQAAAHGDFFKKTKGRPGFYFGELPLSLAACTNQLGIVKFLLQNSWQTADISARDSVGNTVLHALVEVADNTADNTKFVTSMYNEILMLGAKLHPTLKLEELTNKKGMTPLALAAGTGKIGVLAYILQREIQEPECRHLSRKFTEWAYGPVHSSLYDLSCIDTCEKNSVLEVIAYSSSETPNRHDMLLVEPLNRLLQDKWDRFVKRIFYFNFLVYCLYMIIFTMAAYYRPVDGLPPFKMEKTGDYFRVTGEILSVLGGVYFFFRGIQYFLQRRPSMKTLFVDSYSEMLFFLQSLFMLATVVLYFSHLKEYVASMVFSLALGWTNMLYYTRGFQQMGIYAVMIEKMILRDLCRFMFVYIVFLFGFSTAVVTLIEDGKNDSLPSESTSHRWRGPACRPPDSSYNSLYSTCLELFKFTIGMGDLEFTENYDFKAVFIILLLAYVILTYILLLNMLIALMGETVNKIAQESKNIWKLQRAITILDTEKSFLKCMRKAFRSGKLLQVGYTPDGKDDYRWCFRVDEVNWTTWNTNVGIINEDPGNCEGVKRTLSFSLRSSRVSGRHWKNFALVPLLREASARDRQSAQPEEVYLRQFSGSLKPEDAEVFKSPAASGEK
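Cells expressing TRPV1 were dye-loaded with Fluo-8 and read kinetically: 10 s baseline, 3 min after compound (agonist portion), then 2 min after EC20 capsaicin (allosteric enhancer portion). Calcium-bound dye fluorescence at 480/520 nm.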
Sfp PPTase inh: qHTS Assay for Inhibitors of Bacillus subtilis Sfp phosphopantetheinyl transferase (PPTase). 4'-phosphopantetheinyl transferase ffp (Bacillus subtilis), Q9F4F7. Biochemical Sfp PPTase activity, qHTS. Potency, µM, for inactives: max response, negative = inhibition, most hits filed as inhibitors. 310,000 tested, 3.5% active. AID 1490, 2009; active = well fitted inhibition curve with a large enough effect; inconclusive = small, poorly fitted or top-dose-only effect, or another doubt; inactive = no such curve, though single readings can be large or run the other way;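 note: the enzyme is Sfp with the accession as filed and its product quenches rhodamine fluorescence; potency is the fitted concentration of half-maximal effect; 0% = enzyme reaction without inhibitor and -100% = no enzyme wells; top concentration of the series not given in the record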
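Fluorescence-quenching assay: 15 nM Sfp-PPTase preincubated 15 min at room temperature with compound, then 5 uM rhodamine-CoA and 12.5 uM BHQ-2-labelled YbbR peptide added. Fluorescence (ex 525/em 598 nm) read at start and after 30 min; difference gives rate.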
gsp agonist: qHTS for Agonist of gsp, the Etiologic Mutation Responsible for Fibrous Dysplasia/McCune-Albright Syndrome: qHTS | gsp mutant cells, cAMP HTRF, 30 min; control for the full effect not named in the record | Potency, µM (highest dose often 76.9 µM), without a hit: top-dose activation (cAMP increase), hits mostly activators | 340,000 tested, 0.13% active; active = well fitted activation curve with a large enough effect; inconclusive = small, poorly fitted or top-dose-only effect, or another doubt; inactive = no such curve, though single readings can be large or run the other way; cell line not stated here;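 note: phosphodiesterase inhibitor Ro 20-1724 added with compounds to block cAMP breakdown; potency is the fitted concentration of half-maximal effect; nearly all actives have a fitted effect of over 60% in size; about a fifth of the inactives were tested at one dose only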
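Cells stably selected in G418 were plated at 2000/well, grown 16-24 hr, then given compounds in DMSO with the PDE inhibitor […] (300 uM solution added) for 30 min at 37C; cAMP was read by HTRF.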
Menin MLL FP FL: qHTS Assay for Inhibitors Targeting the Menin-MLL Interaction in MLL Related Leukemias: Competition With Fluorescein Labeled MLL-derived Peptide; Fluorescence polarization, fluorescein-MLL peptide displacement from menin; FP activity change, % at 61.4 µM; 290,000 tested, under 10 active; AID 1766, 2009; inconclusive = falling polarisation curve, or a change in total fluorescence; inactive = total fluorescence flat and polarisation flat or rising; no compound was filed as active; the % refers to the polarisation; negative = inhibition;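 note: % of control where 0% means no effect; inhibitors lower the polarisation; unlabelled MLL peptide was the positive control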
ClpP mod: qHTS Assay for Activators of ClpP. purified B. subtilis ClpP, FRET peptide cleavage, 20 min. Potency, µM (series often up to 57.5 µM), without a hit: at the top dose activity change, negative = active. 340,000 tested, 1.9% active. AID 651965, 2013; active = well fitted falling curve with a large enough effect; inconclusive = small, poorly fitted or top-dose-only effect; inactive = no such curve, though single readings can be large or run the other way; note: potency is the fitted concentration of half-maximal effect; the source files actives as falling curves though it sought activators and does not explain the sign; nearly all actives have a fitted effect of over 65% in size; many hits overshoot -100%
Target sequence (P80244 whole entry, looked up): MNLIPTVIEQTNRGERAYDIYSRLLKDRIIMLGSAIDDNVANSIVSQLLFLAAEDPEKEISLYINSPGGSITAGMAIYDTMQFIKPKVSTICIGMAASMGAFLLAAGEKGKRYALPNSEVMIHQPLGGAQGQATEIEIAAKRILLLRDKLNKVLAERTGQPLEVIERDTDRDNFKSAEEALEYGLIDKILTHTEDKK
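Purified B. subtilis ClpP, 10 microg/mL final in Tris/HCl pH8 with KCl, BSA, glycerol and Tween-20, cleaved an Abz/nitrotyrosine-quenched decapeptide. Fluorescence (ex 320, em 430) was read at 0 and 20 min at room temperature. Delta was normalized to 5.8 microM ADEP and DMSO/no-enzyme controls.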
gsp antag: qHTS for Antagonists of gsp, the Etiologic Mutation Responsible for Fibrous Dysplasia/McCune-Albright Syndrome: qHTS; Potency, µM (top dose mostly 76.9 µM), without a hit: top-dose activity change, negative = inhibition, actives largely listed as inhibitors; 340,000 tested, 0.4% active; gsp-mutant cells, cAMP HTRF, 30 min; control for the full effect not named in the record; active = falling curve of any shape with a large fitted effect; inconclusive = falling curve, mostly with a smaller effect; inactive = flat or rising curve; cell line not stated here;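 note: intracellular cAMP measured with PDE inhibitor Ro 20-1724 present during compound exposure; potency is the fitted concentration of half-maximal effect; % is set by controls: 0 for no effect and ±100 for the full control effect; nearly all actives have a fitted effect of over 65% in size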
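Measurement of cellular cAMP by homogeneous time-resolved fluorescence following a 30 min compound exposure at 37C. The PDE inhibitor […] was present throughout; the assay buffer was DPBS with 0.05% BSA and 0.005% Tween 20.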
An asterisk follows results filed as active; ? = inconclusive; . = not tested or not shown; [ ] = another dose, or the depositor's remark.

SMILES | CtBP-E1A blk | TRPV1 potentiator | Sfp PPTase inh | gsp agonist | Menin MLL FP FL | ClpP mod | gsp antag
O=C(NCC(c1ccco1)N1CCc2ccccc21)c1cccc(F)c1 (stereo not given) | 5.2 | -14.0 | . | 1.7%[15.4 µM] | . | . | -2.2%
Cn1nc([N+](=O)[O-])nc1Sc1ccc(C(C)(C)C)cc1 | -9.1 | 5.2 | 11.2% | -8.5% | 0.7 | 2.8% | -3.8%
CCNc1nc(NCC)nc(Oc2ccc(OCc3ccccc3)nn2)n1 | . | 22.8 | 15.9% | . | -3.7 | . | .
Cc1ccc(Nc2nc(N)nc(CSC(=S)N3CCOCC3)n2)c(C)c1 | 2.3 | -16.7 | 19.1% | -3.1% | . | -1.7% | 16.4%
CCOc1ccc(/C(C)=N/N2C(=O)C(CC(=O)Nc3ccc(OC)cc3[N+](=O)[O-])SC2=Nc2cccc(C)c2C)cc1 (stereo not given) | -0.3 | 17.0 | -9.1% | 2.2% | -0.1 | -3.8% | -16.5%
COc1cccc(=O)c2c(C)n(-c3cc(C)cc(C)c3)c(C)c12 | -2.1 | 0.8 | -23.8% | 20.3% | ? | 0.3% | ?
C[C@@H]1CC=C[C@H]2[C@H]1C(=O)N(Cc1ccccc1)[C@H]2c1ccc(F)c(-c2ccc(N(C)C)cc2)c1 | ? | 23.2 | -20.9% | . | 8.9 | 3.4% | -8.8%
Cc1ccccc1-c1nc(CN(C)C(C)c2ccon2)c(C)o1 (stereo not given) | -2.7 | -13.4 | 2.0% | 4.4%[15.4 µM] | -0.5 | . | 0.5%
CC(C)CCn1c(O)c(N=NC(=O)Cn2ccc(C(F)(F)F)n2)c2ccccc21 | -8.4 | -0.7 | 20.1% | 3.9%[15.4 µM] | 5.4 | 0.4% | 0.3%
CCCn1c(N2CCN(CC(=O)NCc3cccs3)CC2)nc2ccccc21 | -2.7 | ? | 4.2% | 0.3% | 0.6 | 0.5% | -18.4%
Cc1ccc(-c2nc3s/c(=C\c4ccco4)c(=O)n3n2)cc1 | 14.4 | 5.4 | 2.5% | -25.9% | 10.1 | -0.2% | 4.5%
O=C(CCn1nnnc1CN1CCOCC1)N1CCC(c2cccc(Cl)c2)C1 (stereo not given) | 4.6 | -1.3 | 3.4% | -1.9% | . | 0.7% | 0.9%
O=C(Nc1ccccc1)N(Cc1ccc2c(c1)OCO2)Cc1nc2ccccc2c(=O)[nH]1 | -4.8 | 26.4 | 3.2% | -7.7% | -3.3 | -2.1% | -5.4%
CC(=O)c1cccc(NC(=O)CN(c2ccc(F)cc2)S(C)(=O)=O)c1 | -1.7 | 8.0 | 15.3% | -1.3% | 1.8 | -1.1% | 11.6%
COc1ccc(Br)cc1C(=O)Nc1cccc(NC(=O)c2ccco2)c1 | -8.4 | -6.4 | 16.7% | -4.1% | 0.9 | -7.3% | -19.0%
Cc1cccc(OC(C)C(=O)NC2CCS(=O)(=O)C2)c1C (stereo not given) | 9.7 | -1.6 | 2.4% | -2.8% | . | -0.4% | 7.3%
Cc1ccc2c(c1)CCCN2C(=O)c1cc2ccccc2oc1=O | 0.5 | -15.6 | -13.5% | -19.4% | 6.6 | -1.1% | -10.5%
COc1ccc(/C=C/C(=O)C23CC4CC(CC(C4)C2)C3)cc1CN1CCOCC1 | ? | -6.6 | -10.6% | -6.0%[15.4 µM] | 1.1 | . | -19.7%
O=C(COC(=O)c1cc([N+](=O)[O-])ccc1N1CCOCC1)c1ccc(OC(F)F)cc1OC(F)F | 0.0 | -8.3 | . | -22.5% | . | 1.5% | 3.6%
COC(=O)[C@H](C)N(Cc1ccc(Cl)c(Cl)c1)S(=O)(=O)CCN1CCCC1 | -4.3 | . | . | . | . | -2.1% | 8.5%
CN(C)S(=O)(=O)c1cccc(COc2ccccc2C(=O)Nc2ccccc2)c1 | -14.9 | -3.2 | 3.1% | 16.9% | . | -11.6% | -15.3%
CCN(CC(=O)Nc1ccc2c(c1)OCCO2)C(=O)c1cc(=O)[nH]c2ccccc12 | 3.0 | 0.3 | . | -4.1%[15.4 µM] | . | -15.3% | 1.3%
COCCNC(=S)N(CCc1c(C)[nH]c2ccc(F)cc12)Cc1ccco1 | . | -7.3 | -6.6% | 0.1% | -8.1 | -4.0% | -8.6%
Cc1ccc(NS(=O)(=O)c2c(C)[nH]c(=O)[nH]c2=O)cc1F | 6.9 | -4.8 | 0.6% | 7.0% | 6.8 | 0.0% | 10.9%
Nc1nnnn1/N=C/c1ccccc1 | -26.1 | -2.3 | 10.1% | 10.9% | 1.7 | . | 7.8%

Of the compounds above, these contain a nitro group on carbon.
SMILES | CtBP-E1A blk | TRPV1 potentiator | Sfp PPTase inh | gsp agonist | Menin MLL FP FL | ClpP mod | gsp antag
Cn1nc([N+](=O)[O-])nc1Sc1ccc(C(C)(C)C)cc1 | -9.1 | 5.2 | 11.2% | -8.5% | 0.7 | 2.8% | -3.8%
CCOc1ccc(/C(C)=N/N2C(=O)C(CC(=O)Nc3ccc(OC)cc3[N+](=O)[O-])SC2=Nc2cccc(C)c2C)cc1 (stereo not given) | -0.3 | 17.0 | -9.1% | 2.2% | -0.1 | -3.8% | -16.5%
O=C(COC(=O)c1cc([N+](=O)[O-])ccc1N1CCOCC1)c1ccc(OC(F)F)cc1OC(F)F | 0.0 | -8.3 | . | -22.5% | . | 1.5% | 3.6%

The results go on:
SMILES | CtBP-E1A blk | TRPV1 potentiator | Sfp PPTase inh | gsp agonist | Menin MLL FP FL | ClpP mod | gsp antag
O=C(NC(=S)NNC(=O)c1cccs1)c1ccc(Br)o1 | 3.5 | -3.8 | -6.8% | 26.5% | -0.1 | 1.7% | -5.2%
Cc1cc(C)nc(N/N=C/c2ccncc2)n1 | -1.1 | -7.4 | -9.4% | 17.4%[15.4 µM] | -0.5 | -1.1% | 0.8%
COc1ccc(NC(=O)CN2CCCCC2)cc1 | -2.8 | ? | -28.4% | -19.0% | 0.7 | 5.2% | 4.9%
Cc1nonc1NC(=O)OCCN1CCOC1=O | 6.8 | -3.5 | 9.7% | 1.7% | 5.5 | 1.2% | 9.8%
CCOC(=O)C1(CCOC)CCN(C(=O)c2sccc2C)CC1 | . | 0.1 | -7.9% | -4.2% | 2.3 | -1.0% | 8.0%
O=C1CC(N2CCC(c3nc4ccccc4o3)CC2)C(=O)N1c1ccc(F)cc1 (stereo not given) | . | 11.8 | 20.7% | 6.0% | 0.2 | 2.1% | 3.5%
CC1CCCCN1CCNC(=O)Cn1nc(-c2ccccc2)ccc1=O (stereo not given) | 0.1 | -0.8 | 9.0% | ? | -1.1 | -19.3% | 6.5%
COc1ccc(CC(=O)Nc2ccc(S(=O)(=O)N3CCCC3)cc2)cc1OC | -6.7 | . | . | -5.8%[15.4 µM] | . | 1.3% | -9.2%
CC1=C(C(=O)OCCNC(=O)c2ccccc2O)C(c2ccccc2[N+](=O)[O-])C(C(=O)OCC2CCCO2)=C(C)N1 (stereo not given) | -17.1 | 3.3 | 15.8% | -7.5% | 7.6 | -1.0% | -23.7%
CCOC(=O)C1CCN(C(=O)CCC(=O)NCCc2ccc(Cl)cc2)CC1 | 0.7 | 13.2 | 12.0% | 5.0%[15.4 µM] | -0.1 | -5.8% | 7.4%
OC(COc1ccc2cc(Br)ccc2c1)CN1CCOCC1 (stereo not given) | -4.8 | 4.8 | 9.3% | -24.7% | 3.1 | -1.7% | 10.9%
COc1ccc(-c2nnnn2CCc2ccccc2)cc1 | -1.7 | 6.6 | 12.3% | 2.4% | -4.7 | -1.3% | 6.9%
COc1ccc(C2=NN(CCC(=O)NCc3cccs3)C(=O)CC2)cc1 | 6.5 | -5.7 | 19.6% | -7.3%[15.4 µM] | -3.2 | . | 2.8%
CCn1c(=O)n(CC)c2cc(S(=O)(=O)Nc3cc(C)cc(C)c3C#N)ccc21 | 4.6 | 7.8 | 5.5% | ? | -1.6 | -10.4% | -1.6%
CCC(=O)N1CCc2cc(S(=O)(=O)N(CC)c3cccc(C)c3)ccc21 | 2.7 | -12.9 | 13.5% | 0.6%[15.4 µM] | 2.3 | -2.1% | -9.6%
O=C(O)CC(NCc1ccco1)C(=O)OCCCl (stereo not given) | 0.9 | -1.5 | -46.1% | 4.1% | -3.7 | . | 14.5%
CCNc1nc(NCC)nc(N(n2cnnc2)S(=O)(=O)c2ccc(C)cc2)n1 | -0.4 | -0.4 | -6.9% | -29.8% | 6.5 | -2.9% | 4.0%
O=C(Nc1ccc(F)cc1)c1cc(Cl)sc1Cl | -1.0 | ? | 19.2% | 6.6%[15.4 µM] | -2.6 | . | 9.9%
CCOc1cc(NC(=O)c2cnccn2)c(OCC)cc1NC(=O)c1cccc(F)c1 | . | -0.5 | 24.0% | . | 1.9 | . | .
CN1CCN(CC(=O)Nc2cccc([N+](=O)[O-])c2)CC1 | . | 2.0 | 11.0% | -42.2% | -0.2 | 0.1% | 4.0%
CCSc1nc2c(c(=O)[nH]1)C(c1ccccn1)C1=C(CC(C)(C)CC1=O)N2 (stereo not given) | 8.5 | -1.9 | -27.8% | -22.3% | 2.1 | 45.6% | 2.7%
COc1ccc(C(O)c2nc3ccccc3n2C(C)C)cc1 (stereo not given) | 2.8 | ? | 6.8% | 14.0% | -1.4 | 2.7% | -0.4%
Cc1noc(C)c1CSCC(=O)Nc1ccc(OC(F)F)c(Cl)c1 | 5.3 | 0.2 | . | 7.4% | . | 0.8% | -1.5%
CNS(=O)(=O)c1ccc(NC(=S)Nc2ccc3c(c2)OCO3)cc1 | -0.1 | 1.0 | 44.7µM* | 6.8%[15.4 µM] | -1.4 | . | 2.1%
Cc1ccc(N2CC(O)=C(c3nc4ccccc4c(=O)[nH]3)C2=N)cc1C | . | 1.6 | 3.0% | -2.6%[15.4 µM] | 1.5 | . | -15.0%
CC1(C)CC(=O)C(c2ccccc2)(c2ccccc2)C(=O)C1 | 13.3 | . | . | 10.4% | . | 0.1% | 1.2%
